# ALR inh – human ALR oxidase inhibition via reduced H2O2; AID 485317; P55789; inhibition, % (test concentration not listed); 3.8% of 290,000 active; purified ALR, DTT oxidation, H2O2 HRP-luminol luminescence;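 active = mean and each replicate at 75% or more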;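 note: stock transfer was 7.5 nL into about 7.5 µL; 0% = neutral wells and 100% = wells with inactivated enzyme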
# FGF22 binding – binders of recombinant human FGF22 by thermal shift; Q9HCT0; SYPRO orange fluorescence; percent of sucrose octasulfate shift, DMSO zero; calls only at 9.99 µM; 1.5% of 340,000 active; AID 651658;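 active = melting point raised past a set limit in the mean and every replicate; three in four hits are not shown here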
# Target sequence (Q9HCT0 whole entry, looked up): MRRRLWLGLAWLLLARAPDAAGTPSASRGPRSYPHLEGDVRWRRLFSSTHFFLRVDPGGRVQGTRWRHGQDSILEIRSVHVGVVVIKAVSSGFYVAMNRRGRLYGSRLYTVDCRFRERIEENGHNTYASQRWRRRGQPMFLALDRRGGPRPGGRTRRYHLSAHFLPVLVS
# HNF4A DNA FP – change in binding of human HNF4 alpha to DNA. AID 1224865. HNF4a-FITC DNA binding, fluorescence polarization, 1 h. activity change, % at 10 µM. P41235. 0.3% of 360,000 active; in the data active = activity change above about 30%, passing the limit was not always enough;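 note: controls were the assay level and a saturating level of protein; the project sought stronger binding though the title names inhibitors; some compounds called inactive have numbers as strong as hits; positive values seem to mean higher polarization but the record does not say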
# Ecoli rRNA inh – inhibits bacterial ribosomal RNA function over humanized ribosomes. E. coli WT GFP vs humanized-ribosome RFP mutants, fluorescence, 24 h; stronger effect = lower value; DMSO median 0, no signal -100. 1.6% of 350,000 active. GFP signal change (wild-type ribosome), % (no concentration beside the values);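 active = significant combined selectivity score with lowered wild-type GFP, culture density cut under 30%, mutant RFP and density less affected; inactive = any of these conditions unmet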; note: one replicate is shown; some compounds called inactive have numbers as strong as hits
# B2AR ag – human beta-2 adrenergic receptor agonism by FAP. AID 504454. Am2.2-beta2AR cells, FAP receptor internalization, flow cytometry; reference of the scale not given here. P07550. 0.43% of 340,000 active. response, % (no concentration beside the values);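 active = response above a set limit, near 3 SD of response in nonfluorescent compounds, cut at about 42% in these data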;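 note: stock transfer was 100 nL into about 11 µL; a reference agonist was the positive control; negative values mostly stem from fluorescent compounds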
# Target sequence (P07550 whole entry, looked up): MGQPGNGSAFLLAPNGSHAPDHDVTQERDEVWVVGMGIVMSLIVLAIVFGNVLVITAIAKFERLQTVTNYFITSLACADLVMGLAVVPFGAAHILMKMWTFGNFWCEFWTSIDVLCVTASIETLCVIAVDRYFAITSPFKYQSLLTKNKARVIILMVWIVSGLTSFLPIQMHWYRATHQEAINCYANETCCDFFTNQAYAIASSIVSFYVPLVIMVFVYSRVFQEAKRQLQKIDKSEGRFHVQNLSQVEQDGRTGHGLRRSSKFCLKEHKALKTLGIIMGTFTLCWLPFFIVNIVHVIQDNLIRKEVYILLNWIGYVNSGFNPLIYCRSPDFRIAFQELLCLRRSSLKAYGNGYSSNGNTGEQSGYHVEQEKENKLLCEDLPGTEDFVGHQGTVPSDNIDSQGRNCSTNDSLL
# Ecoli growth – blocks Escherichia coli growth; OD600, 23 h; stronger effect = lower value; OD600 absorbance (no concentration beside the values); 0.21% of 330,000 active;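 active = OD600 absorbance below the run mean of sample wells minus 3.6 SD, in any replicate, cut at about 0.56 in these data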;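 note: stock transfer was 300 nL into about 60 µL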
# UCH37 inh – blocks the human deubiquitinase UCH37. purified proteasome/UCH37, Ub-AMC cleavage fluorescence. 0.33% of 330,000 active. Q9Y5K5. AID 588478. inhibition, % (no concentration beside the values);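 active = mean of two replicates above 20%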;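 note: 0% = compound-free wells with enzyme and 100% = wells lacking proteasome; stock transfer was 100 nL into about 20 µL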
# Target sequence (Q9Y5K5 whole entry, looked up): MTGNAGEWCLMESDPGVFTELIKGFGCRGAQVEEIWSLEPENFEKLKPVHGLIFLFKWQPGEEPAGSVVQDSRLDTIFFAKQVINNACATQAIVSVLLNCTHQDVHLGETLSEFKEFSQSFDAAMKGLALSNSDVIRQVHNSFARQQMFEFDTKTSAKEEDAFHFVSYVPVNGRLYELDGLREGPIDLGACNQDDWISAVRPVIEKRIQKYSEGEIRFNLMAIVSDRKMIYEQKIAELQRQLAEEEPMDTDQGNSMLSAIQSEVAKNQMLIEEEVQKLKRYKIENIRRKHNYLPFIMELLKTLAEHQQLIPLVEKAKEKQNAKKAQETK
#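 Material: human UCH37 enzyme supplied as purified proteasome complex. Measure: % inhibition of Ub-AMC cleavage fluorescence. Medium: pH 7.4 Tris-HCl (50 mM) with ovalbumin, ATP-MgCl2, DTT. Times: 30 min preincubation with enzyme, 25 min cleavage at room temperature. Detection: AMC fluorescence intensity at 355/460 nm.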
# Ecoli rRNA inh OD600 – recorded beside Ecoli rRNA inh, whose call it bears; OD600 change, %; measured here: OD600 growth;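 optical density of the mix in the first replicate; 0 = DMSO median and -100 = no signal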
# Ecoli rRNA inh RFP – second read-out of Ecoli rRNA inh, no call of its own (marks repeat the call); RFP signal change, %; measured here: RFP humanized mutant strains;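 first replicate; 0 = DMSO median and -100 = no signal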
# Starred values were filed as active, the others as inactive; i = inactive; . = no result given; & = joins results of further samples. Not all compounds are listed. The share of hits here may be higher or lower than overall.
SMILES,ALR inh,FGF22 binding,HNF4A DNA FP,Ecoli rRNA inh,Ecoli rRNA inh OD600,Ecoli rRNA inh RFP,B2AR ag,Ecoli growth,UCH37 inh
COC(=O)C1C(=O)c2c([nH]c(C(=O)OCC3CCCO3)c2C)CC1C (stereo not drawn),-18.4,i,-4.5,-8.0,-5.5,-1.2,0.1,0.751,0.6
O=S(=O)(c1cc(Cl)ccc1Cl)N1CCc2ccccc21,-9.2,.,-1.3,-24.6,-28.8,0.7,14.3,0.676,7.1
Cc1cccc(Nc2nnc(SCC(=O)c3ccc(Br)s3)s2)c1C,-31.5,i,2.1,.,.,.,-5.0,0.687,6.7
CSc1nnc(SCC(=O)Nc2ccc3[nH]c(=O)[nH]c3c2)s1,-7.4,i,-6.5,2.0,3.0,-3.2,0.7,0.695,0.3
Cc1cc(C)c(C)c(S(=O)(=O)NC2CCN(Cc3ccccc3)CC2)c1C,-4.4,i,1.8,-58.8,-78.2,-19.8,3.3,0.677,3.9
O=C1CCN(S(=O)(=O)c2ccccc2)CCN1CCOCc1cccc(F)c1,2.5,i,7.7,-4.0,7.8,-3.7,1.4,0.641,2.4
COc1ccc(N/N=C(\C#N)C(=N)SCc2ccccc2)cc1,.,i,0.9,7.9,9.6,0.0,-1.1,.,.
Nc1nonc1-c1noc(CCCCCN2C(=O)c3ccccc3C2=O)n1,-2.2,.,-1.9,.,.,.,-7.0,0.739,3.9
COc1ccc(N(CC(=O)Nc2c(C)n(C)n(-c3ccccc3)c2=O)S(=O)(=O)c2ccccc2)cc1OC,-4.9,.,-2.8,.,.,.,-4.9,0.698,4.2
COC(=O)c1cc(S(=O)(=O)NCCc2sccc2C)c[nH]1,-7.3,i,0.3,-3.5,-2.2,-0.6,-3.4,0.624,-3.1
CC(C)(C)NC(=O)CSc1nnc(CN2CCCCCC2=O)n1-c1ccccn1,-19.0,.,-0.3,.,.,.,1.4,0.639,0.6
CCOC(=O)CCCn1ccc2cc(S(=O)(=O)N3CCCC3)ccc21,-1.8,i,-3.7,-4.6,-8.4,-0.9,5.3,0.693,4.6
COc1ccc(CCN2C(=O)c3ccccc3NC2c2cc(Cl)c(O)c(OC)c2)cc1 (stereo not drawn),8.7,.,2.2,-49.8,-55.5,2.7,-3.9,0.69,-74.0
Cc1cc(C)c(NC(=O)c2cc3c(nc4sccn43)s2)c(C)c1,.,.,1.0,.,.,.,-8.7,0.697,3.4
CC(=O)CC(=O)Nc1cccc2c1CCCC2,39.2,.,2.2,.,.,.,-8.8,0.709,1.9
O=C(N/N=C/c1ccco1)/C(=C/c1cccc([N+](=O)[O-])c1)NC(=O)c1ccccc1,-8.1,.,-2.0,.,.,.,-5.1,.,.
O=C(NCc1ccccn1)C1CCN(S(=O)(=O)N2CCCCC2)CC1,-9.1,.,-0.9,.,.,.,4.9,0.64,-1.2
CC(=O)NC(CCCNC(=S)NC1CCCCC1)C(=O)O (stereo not drawn),0.1,i,8.8,5.5,9.3,-2.3,3.3,0.676,-0.6
CSCC[C@H](NC(=O)N1CCn2c1nc1ccccc12)C(=O)N[C@@H](C(=O)O)c1ccccc1,-9.9,i,1.4,.,.,.,-5.1,0.719,-1.5
CCOc1ccc(C(=O)CSc2nnc3ccccn23)cc1,12.9,.,-0.9,.,.,.,-4.3,0.618,0.1
O=C(NCc1ccccc1)C1=C[C@H](C2CC2)C[C@H](OCc2ccc(CO)cc2)O1,-5.2,i,-1.9,-21.7,-26.5,-5.8,-16.2,.,0.0
COc1cc(CCC(=O)Nc2c(C(=O)N3CCN(c4ccccc4)CC3)oc3ccccc23)on1,3.9,i,1.4,-28.3,-26.2,-7.2,-1.6,0.63,1.5
COc1ccc(S(=O)(=O)Nc2ccccc2OC)cc1NC(=O)Cc1cccs1,-10.6,.,1.5,.,.,.,4.0,0.683,2.4
O/N=C/c1cc(Cl)ccc1OCc1ccccc1Cl,-4.3,.,3.4,.,.,.,-1.5,.,.
CCOC(=O)C1=CC[C@@H](c2ccccc2Cl)N(S(=O)(=O)c2ccc(C)cc2)[C@H]1C(=O)OCC,-11.9,i,2.8,-2.5,-1.4,-9.4,13.6,.,38.0*
CCN(CC)C(=O)c1[nH]cnc1C(=O)Nc1cccc(C)c1,2.2,i,2.0,-3.4,-7.8,2.4,3.8,0.598,-0.5
Cc1ccc(N2CCN(C(C(=O)Nc3c(C)cccc3C)c3cc4ccccc4o3)CC2)cc1 (stereo not drawn),.,i,-3.8,6.1,8.5,-0.5,.,.,.
COc1ccc(/C=N/NC(=O)C(C)n2cnc3ccccc3c2=O)cc1OC (stereo not drawn),-6.8,i,0.6,-0.8,7.1,3.3,8.9,.,.
COc1cc2c(cc1NC(=O)CSc1cccc[n+]1[O-])oc1ccccc12,95.7*,i,1.8,-4.9,6.4,4.2,-5.2,0.68,0.3
CCCCNC(=O)COCc1cc(-c2ccc3c(c2)OCO3)on1,1.7,i,-2.1,-3.9,-6.4,2.1,2.4,0.675,-1.1
Nc1nc(-c2ccccc2Br)cs1,98.0*,.,-3.3,.,.,.,12.6,0.682,4.8
COc1cc2c(cc1OC)-c1cc(NC3CCCCCC3)nc(=O)n1CC2,-30.2,.,0.5,.,.,.,16.4,0.669,-87.9
CC(C)c1ccc(S(=O)(=O)Nc2ccc(O)c(Sc3ncn[nH]3)c2)cc1,98.7*,i,0.8,-18.3,-18.8,-1.1,6.2,0.731,3.5
CCOC(=O)CC(=O)CSc1nc2ccccc2c(=O)n1-c1ccc(C(=O)NCCOC)cc1,-1.2,.,-0.6,.,.,.,9.4,0.686,-2.4
COc1ccc(-c2[nH]ncc2CN(C)C(C)c2ccon2)cc1F (stereo not drawn),-3.4,i,-3.1,2.5,-3.8,1.0,-1.6,0.632,4.5
CC(=O)c1ccc(OCC(=O)c2ccc(-c3ccccc3)cc2)cc1,0.3,.,-3.9,.,.,.,-1.6,0.706,3.1
COC(=O)c1c(NC(=O)COC(=O)C2CCC2)sc(C)c1C,0.7,.,0.1,-8.6,-17.9,-2.9,0.4,0.679,2.3
C=CCN1[C@@H](Cc2ccccc2)COCCS1(=O)=O,.,.,3.5,-0.9,9.8,-2.4,-1.8,.,-0.8
OCCC1CN(C2CCN(c3ccccc3)CC2)CCN1Cc1ccc(F)c(F)c1 (stereo not drawn),67.7,i,-0.5,7.2,9.4,2.9,3.6,0.686,4.5
NC(=O)NCC(=O)N1CCN(S(=O)(=O)c2ccc(Cl)s2)CC1,-2.6,i,-0.2,.,.,.,2.2,0.69,4.4

# Some of the entries so far, with two lines to a compound.
# Fields: ALR inh	FGF22 binding	HNF4A DNA FP	Ecoli rRNA inh	Ecoli rRNA inh OD600	Ecoli rRNA inh RFP	B2AR ag	Ecoli growth	UCH37 inh
> CC(C)c1ccc(S(=O)(=O)Nc2ccc(O)c(Sc3ncn[nH]3)c2)cc1
 : 98.7*	i	0.8	-18.3	-18.8	-1.1	6.2	0.731	3.5
> CCOC(=O)CC(=O)CSc1nc2ccccc2c(=O)n1-c1ccc(C(=O)NCCOC)cc1
 : -1.2	.	-0.6	.	.	.	9.4	0.686	-2.4
> COc1ccc(-c2[nH]ncc2CN(C)C(C)c2ccon2)cc1F (stereo not drawn)
 : -3.4	i	-3.1	2.5	-3.8	1.0	-1.6	0.632	4.5

# The list goes on:
SMILES,ALR inh,FGF22 binding,HNF4A DNA FP,Ecoli rRNA inh,Ecoli rRNA inh OD600,Ecoli rRNA inh RFP,B2AR ag,Ecoli growth,UCH37 inh
CCn1c(=O)c2ccccc2n2c(SCC(=O)NCc3cccs3)nnc12,1.2,.,1.6,.,.,.,-0.7,0.712,4.1
N#Cc1ccc(Cn2c(=O)c(C#N)c3n(c2=O)CCC3)cc1,.,.,7.9,.,.,.,-5.2,0.702,3.9
COc1ccc(OC)c(NC(=O)C(=O)NNC(=O)C23CC4CC(CC(C4)C2)C3)c1,1.4,.,0.0,2.6,4.5,-0.5,-0.9,0.693,-0.1
CC1CCCC(NC(=O)NC(=O)COC(=O)c2ccc(O)cc2O)C1C (stereo not drawn),.,i,4.5,-58.0,-80.4,-18.4,3.9,0.647,2.2
O=C(O)C1CCCN(S(=O)(=O)c2ccccc2)C1 (stereo not drawn),-7.4,i,5.9,-0.6,-3.8,-0.8,6.1,0.692,5.3
CSc1nc(Cc2ccccc2)nc2ccccc12,7.0,i,-1.1,-11.9,1.8,4.5,-35.5,0.66,3.0
c1ccc(CCNCc2cccs2)nc1,.,i,3.4,.,.,.,-9.7,0.655,0.9
COc1ccc(C(=O)NCC(=O)N2CCC3(CC2)NCCc2[nH]cnc23)cc1,-7.3,i,4.6,-0.1,4.3,-1.1,-3.7,0.62,1.4
C[C@H](CO)N1C[C@H](C)[C@@H](CN(C)S(=O)(=O)c2cccs2)Oc2ccc(NC(=O)Cc3ccccc3)cc2C1=O,-0.8,i,3.0,-7.2&-2.9,-2.9&-6.8,-13.2&1.4,11.6,0.766,-2.5
CC(C)c1cccc(-c2ccc3c(c2)S(=O)(=O)c2cccc(C(=O)NC4CCCC4)c2C3=O)c1,0.4,i,-2.9,5.4,22.6,11.5,-0.7,0.719,0.5
Cc1cc(C(=O)NCCCn2ccnc2)sc1-c1ccccc1,-11.6,.,3.2,.,.,.,-4.4,0.6,-2.1
O=C(OCCN1CCN(c2ncc(C(F)(F)F)cc2Cl)CC1)c1ccc(Cl)cc1,-1.2,.,-0.9,.,.,.,-13.1,0.757,-3.6
CCOC(=O)CC(/C(C)=N\O)c1ccccc1 (stereo not drawn),-2.2,.,-2.2,.,.,.,0.4,.,.
CCOc1ccc(CCNC(=O)COC(=O)c2nccnc2N)cc1OCC,0.8,i,6.2,5.9,11.7,0.4,0.2,0.686,-72.0
O=C(CN1CCOCC1)Nc1nc(-c2ccc3c(c2)CCN3S(=O)(=O)c2ccccc2)cs1,-7.8,.,0.8,-10.6,-5.5,7.3,12.2,0.731,1.7
O=C(N/N=C/CCc1ccccc1)c1ccc(CN2c3cccc4cccc(c34)S2(=O)=O)cc1,-2.9,.,0.2,.,.,.,1.0,.,.
CCOc1cc(C2C(C(C)=O)=C(C)Nc3ncnn32)ccc1O (stereo not drawn),31.6,.,-1.2,.,.,.,-2.5,0.691,9.4
COc1cccc(C2=NOC(C(=O)Nc3cccnc3)C2)c1 (stereo not drawn),-1.6,.,2.8,.,.,.,10.1,0.722,1.0
CCOc1ccccc1C(=O)NCCNC(=O)c1ccccc1OCC,-0.8,i,-0.7,-1.7,-17.8,-0.5,-2.8,0.67,6.3
Cc1cc2nc(CCl)cc(=O)n2[nH]1,-0.8,i,-1.2,6.7,14.1,3.1,2.8,0.688,3.4
COc1ccc2nc(NC3=NC(C(=O)Nc4ccc(C)cc4)CC(=O)N3)nc(C)c2c1 (stereo not drawn),-1.3,.,.,.,.,.,.,0.676,-3.8
CC(C)C(C)N(Cc1ccc(C(=O)O)cc1)C(=O)c1ccc2ccccc2n1 (stereo not drawn),-5.9,i,1.6,-0.4,-20.9,0.9,-7.9,0.714,5.4
Cc1ccc(S(=O)(=O)Nc2ccc3nc(C)oc3c2)cc1,.,i,0.8,5.4,-8.1,-0.1,1.7,.,.
COc1cc(/C=C/C(=O)OCC(=O)N(CC(C)C)c2c(N)n(Cc3ccccc3)c(=O)[nH]c2=O)ccc1O,.,i,-1.3,-4.5,-1.3,6.4,1.0,0.712,-11.4
CCOC(=O)C1=CN(Cc2cccc(F)c2)S(=O)(=O)N(CC)C1c1ccc(C(F)(F)F)cc1 (stereo not drawn),.,i,0.3,4.3,5.1,-3.7,-2.4,0.698,-0.5
CN(C(=O)Nc1cnccc1C(F)(F)F)C1CCCCC1,-16.3,i,20.4,5.8,3.6,-0.5,-5.7,0.684,-4.2

# Screening data: PubChem BioAssay, several laboratories
